# Assay outcomes from PubChem.
# ClpP mod = qHTS Assay for Activators of ClpP | AID 651965, 2013 | purified B. subtilis ClpP, FRET peptide cleavage, 20 min | ATP-dependent Clp protease proteolytic subunit (Bacillus subtilis (strain 168)), P80244 | 340,000 compounds, 1.9% hits | Potency, µM (highest dose often 57.5 µM), for the others: at the top dose activity change, negative = active; active = well fitted falling curve with a large enough effect; inconclusive = small, poorly fitted or top-dose-only effect; inactive = no such curve, though single readings can be large or run the other way; also: potency is read from the fitted curve at half-maximal effect; the source files actives as falling curves though it sought activators and does not explain the sign; nearly all actives have a fitted effect of over 65% in size; many hits overshoot -100%
# Target sequence (P80244 whole entry, looked up): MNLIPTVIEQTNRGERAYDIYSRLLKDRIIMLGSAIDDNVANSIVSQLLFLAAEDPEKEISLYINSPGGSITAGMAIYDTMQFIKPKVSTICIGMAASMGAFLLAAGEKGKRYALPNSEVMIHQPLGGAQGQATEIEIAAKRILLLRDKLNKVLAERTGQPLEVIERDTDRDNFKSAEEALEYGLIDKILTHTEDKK
#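 FRET quenching reversal measured ClpP activation: 10 microg/mL B. subtilis ClpP at pH 8 with the FRET-FV decapeptide, read at 430 nm after 320 nm excitation. The 20-min minus 0-min signal was scaled between DMSO/no-enzyme wells and ADEP (5.8 microM final).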
# TRPV1 potentiator = HTS Assay for Compounds that Act as Potentiators of the Vanilloid Receptor 1; Transient receptor potential cation channel subfamily V member 1 (Homo sapiens), Q8NER1; potentiation, % at 8.33 µM; AID 540277, 2011; TRPV1-expressing cells, Fluo-8 calcium influx, capsaicin EC20 potentiation; host cell line not named in the record; control for the full effect not named in the record; 320,000 compounds, 0.02% hits; active means potentiation above 80%; inconclusive means 30% to 80%; inactive means below 30%; also: 0% is about no effect
# Target sequence (Q8NER1 whole entry, looked up): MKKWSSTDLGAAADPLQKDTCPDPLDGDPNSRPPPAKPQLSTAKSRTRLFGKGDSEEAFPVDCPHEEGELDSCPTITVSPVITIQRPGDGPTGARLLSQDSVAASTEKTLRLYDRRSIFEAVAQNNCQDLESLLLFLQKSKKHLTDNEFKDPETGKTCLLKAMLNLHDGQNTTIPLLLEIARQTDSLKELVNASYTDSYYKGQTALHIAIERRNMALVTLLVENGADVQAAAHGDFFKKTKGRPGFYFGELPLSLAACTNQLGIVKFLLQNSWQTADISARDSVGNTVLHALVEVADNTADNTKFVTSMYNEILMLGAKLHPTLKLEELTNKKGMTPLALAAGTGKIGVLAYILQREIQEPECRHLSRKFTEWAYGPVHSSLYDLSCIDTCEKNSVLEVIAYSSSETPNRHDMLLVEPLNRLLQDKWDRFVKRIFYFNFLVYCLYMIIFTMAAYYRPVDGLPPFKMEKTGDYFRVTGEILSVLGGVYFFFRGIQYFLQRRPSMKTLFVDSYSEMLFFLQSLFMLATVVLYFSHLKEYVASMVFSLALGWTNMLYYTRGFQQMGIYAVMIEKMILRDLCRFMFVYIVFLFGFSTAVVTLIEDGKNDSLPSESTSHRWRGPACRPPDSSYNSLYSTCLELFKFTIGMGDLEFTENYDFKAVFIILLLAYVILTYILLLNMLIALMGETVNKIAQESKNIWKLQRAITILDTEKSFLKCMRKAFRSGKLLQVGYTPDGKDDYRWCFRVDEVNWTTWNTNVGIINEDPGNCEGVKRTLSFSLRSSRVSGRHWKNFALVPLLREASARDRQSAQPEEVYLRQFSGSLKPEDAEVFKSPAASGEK
#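 Cells expressing TRPV1 were dye-loaded with Fluo-8 and read kinetically: 10 s baseline, 3 min after compound (agonist portion), then 2 min after EC20 capsaicin (allosteric enhancer portion). Calcium-bound dye fluorescence at 480/520 nm.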
# gsp agonist = qHTS for Agonist of gsp, the Etiologic Mutation Responsible for Fibrous Dysplasia/McCune-Albright Syndrome: qHTS; gsp mutant cells, cAMP HTRF, 30 min; control for the full effect not named in the record; Potency, µM (top dose mostly 76.9 µM), for inactives: at the top dose activation (cAMP increase), most hits filed as activators; 340,000 compounds, 0.13% hits; AID 624287, 2012; active = well fitted activation curve with a large enough effect; inconclusive = small, poorly fitted or top-dose-only effect, or another doubt; inactive = no such curve, though single readings can be large or run the other way; cell line not stated here;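 also: phosphodiesterase inhibitor Ro 20-1724 added with compounds to block cAMP breakdown; potency is read from the fitted curve at half-maximal effect; nearly all actives have a fitted effect of over 60% in size; about a fifth of the inactives were tested at one dose only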
#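 Cells stably selected in G418 were plated at 2000/well, grown 16-24 hr, then given compounds in DMSO with the PDE inhibitor […] (300 uM solution added) for 30 min at 37C; cAMP was read by HTRF.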
# TRPML1 blocker = qHTS for Inhibitors of the Human Mucolipin Transient Receptor Potential 1 (TRPML1); 390,000 compounds, 0.02% hits; TRPML1-inducible cells, Ca2+ dye fluorescence, FDSS; stronger effect = lower value; inhibition of EC80 agonist-evoked calcium signal; AID 624415, 2012; activity change, negative = inhibition, % (concentration not given with the values); in the data active means activity change below about -50%; inconclusive means about -30% to -50%; inactive means above about -30%;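 also: stimulus is agonist 54-4 at its EC80 concentration; % is scaled to controls: 0 for no effect and ±100 for the full control effect; the text of the record puts the active cut at -80%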
#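 TRPML1-DL cells, Tet-induced overnight (~16 h, 37 °C) at 1,500 cells/well, were loaded with Ca8 no-wash dye plus quencher for 45-90 min at room temperature. Compounds were pinned during FDSS kinetic reading; agonist 54-4 at EC80 (4 uM final) then added.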
# gsp antagonist = qHTS for Antagonists of gsp, the Etiologic Mutation Responsible for Fibrous Dysplasia/McCune-Albright Syndrome: qHTS | 340,000 compounds, 0.4% hits | gsp-mutant cells, cAMP HTRF, 30 min; control for the full effect not named in the record | Potency, µM (titrated, usually from 76.9 µM), for inactives: at the highest dose activity change, negative = inhibition, hits mostly inhibitors; active = falling curve of any shape with a large fitted effect; inconclusive = falling curve, mostly with a smaller effect; inactive = flat or rising curve; cell line not stated here;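 also: intracellular cAMP measured with PDE inhibitor Ro 20-1724 present during compound exposure; potency is read from the fitted curve at half-maximal effect; % is scaled to controls: 0 for no effect and ±100 for the full control effect; nearly all actives have a fitted effect of over 65% in size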
#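 HTRF cAMP measurement after 30 min RT detection following 30 min, 37C compound treatment alongside […] (added as 300 uM solution) in G418-selected cells seeded at 2000/well and grown 16–24 h.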
# Sfp inh = qHTS Assay for Inhibitors of Bacillus subtilis Sfp phosphopantetheinyl transferase (PPTase); 4'-phosphopantetheinyl transferase ffp (Bacillus subtilis), Q9F4F7; Biochemical Sfp PPTase activity, qHTS; Potency, µM, inactives show max response, negative = inhibition, hits mostly inhibitors; 310,000 compounds, 3.5% hits; AID 1490, 2009; active = well fitted inhibition curve with a large enough effect; inconclusive = small, poorly fitted or top-dose-only effect, or another doubt; inactive = no such curve, though single readings can be large or run the other way;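 also: the enzyme is Sfp with the accession as filed and its product quenches rhodamine fluorescence; potency is read from the fitted curve at half-maximal effect; 0% = enzyme reaction without inhibitor and -100% = no enzyme wells; top concentration of the series not given in the record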
#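 Compounds were incubated with enzyme (final 15 nM) for 15 min at room temperature before substrate addition started the reaction. Fluorescence at 525 nm excitation, 598 nm emission was recorded immediately and after 30 minutes.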
# Menin MLL FP FL = qHTS Assay for Inhibitors Targeting the Menin-MLL Interaction in MLL Related Leukemias: Competition With Fluorescein Labeled MLL-derived Peptide | Fluorescence polarization, fluorescein-MLL peptide displacement from menin | FP activity change, % at 61.4 µM | 290,000 tested, under 10 active | AID 1766, 2009; inconclusive = falling polarisation curve, or a change in total fluorescence; inactive = total fluorescence flat and polarisation flat or rising; no compound was filed as active; the % refers to the polarisation; negative = inhibition;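 also: % of control where 0% means no effect; inhibitors lower the polarisation; unlabelled MLL peptide was the positive control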
# * hit, by the source's call; ? = inconclusive; · = no result given; [ ] = another dose, or the depositor's remark. Compounds were not picked by outcome. About 4.9% of those tested had a hit in this group.
SMILES,ClpP mod,TRPV1 potentiator,gsp agonist,TRPML1 blocker,gsp antagonist,Sfp inh,Menin MLL FP FL
COc1ccc(S(=O)(=O)N2CCOC2CNC(=O)C(=O)NCc2ccc3c(c2)OCO3)cc1OC (stereo not drawn),-1.1%,3,-7%[15.4 µM],-1,-3%,8%,·
Cc1ccc(NC(=O)c2nc[nH]c2C(=O)N2CCN(c3ccccc3)CC2)cc1,38%,?,·,18,-9%,4%,2.6
Nc1nc(SCc2ccccc2)ns1,-1.2%,2,-24%,37,-2%,?,-0.8
CCN(C[C@H]1N[C@@](CC)(C(=O)OC)[C@H]2C(=O)N(Cc3ccccc3)C(=O)[C@@H]12)S(=O)(=O)c1ccc(OC)cc1,0.6%,·,·,-1,-13%,·,·
C=CC[C@H](CC(=O)N(CCO)Cc1ccccc1)C(=O)N[C@@H](C)COC(=O)[C@@H](CC=C)Cc1ccc(F)cc1,0.7%,·,·,23,-27%,·,·
CCCc1cc(C(=O)N2CCCC(N3CCN(c4ccccc4F)CC3)C2)n(C)n1 (stereo not drawn),0.9%,1,5%,-11,-8%,8%,·
CCOC(=O)c1c(C)[nH]c(C)c1S(=O)(=O)N(C)CC(=O)N(C)Cc1ccccc1,1.5%,?,?,-17,2%,15%,0.2
Cc1ccc2[nH]c(=O)c(CN(C(=O)c3cccc([N+](=O)[O-])c3)C(C)(C)C)cc2c1,-1.3%,13,-4%,-8,?,-20%,6.2
O=C(Nc1ccn(CCCNCC2CCCO2)c(=O)n1)OCc1ccccc1 (stereo not drawn),-0.1%,·,·,30,6%,·,·
COc1ccc(CCN2CC(C(=O)N3CCCCCC3)CCC2=O)cc1 (stereo not drawn),1.1%,-1,-63%[inhibitor],18,3%,13%,·
Cc1ccc(C(=O)CCC(=O)OCc2nnc(-c3ccccc3)o2)cc1,-3.3%,21,-2%[15.4 µM],8,2%,·,·
CCN1C(=O)/C(=C/c2cc(C)n(C)c2C)SC1=Nc1ccc(OC)cc1,-4.1%,0,0%,84,5%,-7%,9.2
O=S(=O)(NCCN1CCCC1)c1cccc2cccnc12,-3.4%,·,-3%,16,7%,0%,-0.3
Cc1nnc2ccc(-c3cccc(NS(=O)(=O)c4ccccc4[N+](=O)[O-])c3)nn12,·,-1,47%[15.4 µM],7,9%,·,·
CCCCN(CCCC)CCNC(=O)c1ccc2nc(-c3ccccc3NC(C)=O)c(=O)[nH]c2c1,-14%,-6,-32%[inhibitor],9,6%,6%,-0.9
Cc1ccc(NC(=O)Cn2cnc3c(nnn3Cc3ccc(F)cc3)c2=O)cc1,-1.9%,2,0%,34,16%,10%,3.3
COc1cccc(CN(CC2CCCO2)S(=O)(=O)c2ccc(S(=O)(=O)NCC3CCCO3)cc2)c1OC (stereo not drawn),-3.4%,4,-62%[inhibitor],-16,-5%,3%,0.1
O=C(COc1ccc(S(=O)(=O)N2CCOCC2)cc1)NCc1ccco1,0.8%,-23,-32%[inhibitor],8,-3%,-1%,·
Nc1c(-c2ccsc2)cnc2ncnn12,·,3,-6%[15.4 µM],34,6%,1%,-4.6
Cc1ccc(S(=O)(=O)NCCC(=O)NCCc2ccc(S(N)(=O)=O)cc2)cc1C,-2.8%,·,5%,-8,0%,·,·
O=C(Nc1ccccc1)Nc1nccs1,0.1%,-2,9%,6,-23%,-25%,2.7
COCCCNC(=O)CN1C(=O)c2ccccc2C1=O,0.8%,4,-37%[inhibitor],-12,4%,17%,-0.5
CC(C)OC(=O)CSc1nc2ncc(Cl)cc2[nH]1,0.2%,-2,0%,-8,7%,25%,-0.1
CCOC(=O)c1sc(/N=C/c2c(C)[nH]n(-c3ccccc3)c2=O)c(C#N)c1C,·,28,·,·,·,0%,5.6
CC(C)CN(C(=O)CSc1nnc(-c2cccs2)n1N)c1c(N)n(Cc2ccccc2)c(=O)[nH]c1=O,1.7%,-5,2%,10,10%,·,·

# (more compounds)
SMILES,ClpP mod,TRPV1 potentiator,gsp agonist,TRPML1 blocker,gsp antagonist,Sfp inh,Menin MLL FP FL
CCOC(=O)c1ccc(C(=S)N2CCCC2)cc1,·,8,11%,11,3%,40µM*,3.8
CCc1c(C)nc2ncnn2c1N1CCCC(C(=O)NCc2ccc3c(c2)OCO3)C1 (stereo not drawn),-0.3%,-6,25%,8,-1%,21%,3.6
CCOc1ccc(S(=O)(=O)N2CCCC(C(=O)N3CCC(C(N)=O)CC3)C2)cc1Cl (stereo not drawn),·,-5,5%[15.4 µM],-15,·,1%,-14
C/C(=N\N=C(/C)c1cccc(N)c1)c1cccc(N)c1,·,·,-7%[15.4 µM],-7,12%,·,·
CCOc1ccccc1NC(=O)NNC(=O)CCc1ccc(OC)cc1,0.3%,6,-10%,-8,0%,10%,-4.5
COc1ccccc1CC(=O)NC1CC1,-0.2%,0,1%[15.4 µM],-8,0%,14%,3.7
CCCNS(=O)(=O)c1ccc(CCC(=O)NCc2ccc3c(c2)OCO3)cc1,1.2%,-4,3%,8,-4%,1%,-1.3
COc1ccc(C(=O)OC(C(=O)c2ccc(C)cc2)c2ccccc2)cc1 (stereo not drawn),-2.9%,-6,-56%[inhibitor],-6,1%,-10%,1.0
Cc1cc(Oc2ccc(=O)n(C)n2)nc(SCCOc2ccccc2)n1,·,2,8%[15.4 µM],40,-6%,7%,6.6
COc1ccc(NC(=O)COc2cc(O)c3c(c2)OC(C)(C)CC3=O)cc1,1.3%,-3,·,·,?,-3%,-2.2
O=C(CCCCCn1c(=S)[nH]c2cc3c(cc2c1=O)OCO3)N1CCN(C2CCCCC2)CC1,0.0%,-3,-5%,5,8%,2%,-1.8
Cc1cc(N)ccc1NC(=O)c1ccccc1,2.5%,16,?,-3,-9%,6%,0.9
Cc1cccc(NC2=NC3(CCCCC3)N=C(N)N2)c1,-2.7%,·,1%,8,2%,·,·
Cc1c(Br)c([N+](=O)[O-])nn1CC(=O)Nc1nccs1,·,3,11%[15.4 µM],14,1%,-2%,3.0
Cc1cccc(NC(=O)c2sc3nc(C)nc(N4CCOCC4)c3c2C)c1,-4.0%,·,-76%[inhibitor],5,·,·,·
C=CCOC(=O)C1=C(C)NC(SCC(=O)N(CC)CC)=C(C#N)C1c1ccccc1 (stereo not drawn),-17%,0,0%,26,-11%,10%,-1.5
CCOc1ccc(Cn2c(O)cc(=O)[nH]c2=O)cc1,-3.0%,2,17%,10,-12%,50µM*,24
COc1cccc(NC(=O)COC(=O)CCC(=O)c2cccs2)c1,-0.8%,-4,11%,-12,4%,·,·
Cc1ccc(S(=O)(=O)N(CC(=O)Nc2cc(C)ccc2C)C(=O)N2CCN(C)CC2)cc1,-0.7%,2,-1%,13,18%,·,·
CC(C)Oc1ccc(C(CC(=O)N2CCOCC2)C(C)C)cc1 (stereo not drawn),0.9%,6,14%,·,-2%,13%,0.0
CCCC/C(C)=N/NC(=O)C(=O)NCCc1ccccc1,-0.8%,-1,?,4,-8%[15.4 µM],1%,-2.1
C[C@@H]1CN([C@H](C)CO)C(=O)c2cc(Br)cnc2O[C@H]1CN(C)C(=O)Nc1ccccc1F,-0.9%,·,-18%,34,·,·,·
CCc1c(C)c2ccc(OCC(=O)OC)cc2oc1=O,14µM*,-8,-3%,5,-27%,16%,2.2
CC(C)c1ccc(NC(=O)CCNC(=O)Cn2cnc3ccccc3c2=O)cc1,3.6%,-6,12%[15.4 µM],27,-32%,14%,-7.7
Cc1nonc1NC(=O)CSc1nc2c(C)cccc2cc1C#N,-6.4%,7,?,6,-13%,15%,?

# The list goes on:
SMILES,ClpP mod,TRPV1 potentiator,gsp agonist,TRPML1 blocker,gsp antagonist,Sfp inh,Menin MLL FP FL
COc1ccc(CCNC(=O)C/C(C)=N/NC(=O)COc2ccc(C)cc2Br)cc1OC,·,7,12%[15.4 µM],-4,-3%,7%,·
COc1ccc(/C(C)=N/NC(=O)c2cccc(S(=O)(=O)N3CCCC3)c2)c(O)c1,·,-28,-1%[15.4 µM],-2,-9%,·,·
CCC[C@@H](CN1CCC[C@H]1CN1C(N)=NC[C@H]1CC(C)C)N1C[C@@H](Cc2ccccc2)N(CCCC2CCCC2)C1=N,0.1%,·,·,5,7%,·,·
COc1ccccc1N1CCN(C(=O)CC(NC(=O)c2ccccc2Cl)c2ccccc2)CC1 (stereo not drawn),-1.4%,19,13%,-1,-13%,·,·
O=C1C(Cc2ccccc2)NC(=S)N1c1ccccc1 (stereo not drawn),-0.4%,10,16%,16,10%,14%,-7.5
CN(C)C(=O)CSc1nnc(-c2cccnc2)n1-c1ccccc1,-0.3%,·,-79%[inhibitor],-13,0%,25%,-0.1
Cc1ccc(CCNC(=O)c2ccc3nc4ccc(Cl)cc4c(=O)n3c2)cc1,-11%,?,-7%,1,2%,11%,0.7
CN1CCc2c(sc3nc(SCC(=O)N4CCOCC4)nc(N)c23)C1,?,1,?,6,3%,19%,-3.2
CC(=O)c1cn(CC(=O)Nc2ccccc2C(F)(F)F)c2ccccc12,-0.3%,-8,?,-5,5%,6%,3.9
O=C1CCCN1CC(CN1CCOCC1)Sc1nc2ccccc2c(=O)n1-c1ccccc1 (stereo not drawn),-2.7%,-1,-48%[inhibitor],31,7%,-5%,4.4
O=[N+]([O-])c1ccccc1SNc1ccccc1,-2.2%,·,2%,50,·,·,·
CC(=O)Nc1nn(C)c2nc3cc(C)ccc3cc12,-0.7%,2,-13%,-10,-6%[15.4 µM],8%,1.5
COc1cc(/C=C2/SC(=S)NC2=O)ccc1OS(=O)(=O)c1ccc(C)cc1,·,-4,5%[15.4 µM],30,?,25µM*,21
COc1ccc(C(=O)N2CCN(c3nc(C4CC4)nc4sc(C)c(C)c34)CC2)cc1,·,-4,-16%,38,?,?,1.5
CCOC(=O)c1nn(-c2ccc(Cl)cc2Cl)c(=N)c(C#N)c1C,·,7,·,·,·,12%,?
